Screening results as filed in PubChem.
Ecoli rRNA inh: reduced GFP signal of wild-type E. coli, primary screen, bacterial rRNA inhibitor project, GFP/RFP fluorescence, OD600, single point. E. coli WT GFP vs humanized-ribosome RFP mutants, 24 h; stronger effect = lower value; DMSO median 0, no signal -100. GFP signal change (wild-type ribosome), % (test concentration not listed). 1.6% of 350,000 active. AID 720706, 2013;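 active = significant combined selectivity score with lowered wild-type GFP, culture density cut under 30%, mutant RFP and density less affected; inactive = any of these conditions unmet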; also: one replicate is shown; some compounds called inactive have numbers as strong as hits
AF4-AF9 inh: inhibitors of AF4 peptide binding to AF9, primary screen, biochemical, AlphaScreen, biotin-AF4 peptide, FLAG-AF9, single point; inhibition, % at 10 µM; 0.47% of 350,000 active;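 active = every replicate reaching a set inhibition limit, whatever the replicate mean, cut at about 25% in these data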;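 also: 0% = plate neutral control median and 100% = total signal loss; the record names both 10 and 1 µM as test concentration; the first replicate is given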
Target sequence (P42568 whole entry, looked up): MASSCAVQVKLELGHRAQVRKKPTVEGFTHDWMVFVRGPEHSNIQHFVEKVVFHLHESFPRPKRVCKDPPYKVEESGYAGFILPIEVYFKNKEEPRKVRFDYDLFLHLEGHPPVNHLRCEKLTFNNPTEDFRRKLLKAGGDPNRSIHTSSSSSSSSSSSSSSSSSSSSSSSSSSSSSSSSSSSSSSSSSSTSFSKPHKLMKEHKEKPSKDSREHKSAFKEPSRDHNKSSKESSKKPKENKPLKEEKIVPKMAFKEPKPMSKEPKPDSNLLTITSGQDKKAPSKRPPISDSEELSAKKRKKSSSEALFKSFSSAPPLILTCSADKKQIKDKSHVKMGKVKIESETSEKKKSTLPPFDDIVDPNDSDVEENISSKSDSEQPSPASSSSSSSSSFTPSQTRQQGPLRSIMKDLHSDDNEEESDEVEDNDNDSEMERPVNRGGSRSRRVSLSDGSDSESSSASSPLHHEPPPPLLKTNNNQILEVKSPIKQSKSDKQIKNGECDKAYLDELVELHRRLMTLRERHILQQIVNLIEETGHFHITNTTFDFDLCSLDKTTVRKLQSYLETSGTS
Ecoli rRNA inh OD600: recorded beside Ecoli rRNA inh, whose call it bears; OD600 change, %; measured here: OD600 growth;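 optical density of the mix in the first replicate; 0 = DMSO median and -100 = no signal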
Ecoli rRNA inh RFP: also measured in Ecoli rRNA inh; calls as there; RFP signal change, %; measured here: RFP humanized mutant strains;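 first replicate; 0 = DMSO median and -100 = no signal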
Active calls of the source: *. These rows are one share of the data. The share of hits here may be higher or lower than overall.

Compound,Ecoli rRNA inh,Ecoli rRNA inh OD600,Ecoli rRNA inh RFP,AF4-AF9 inh
COc1ccc(CN(C)C[C@@H]2Oc3ccc(NC(=O)Nc4ccc(OC)cc4)cc3CC(=O)N([C@@H](C)CO)C[C@@H]2C)cc1,-11,-30,30,1.9
CCS(=O)(=O)N1CC(=O)N2[C@@H](CO)[C@H](c3ccc(C#CCC4CCCC4)cc3)[C@@H]2C1,-35,-66,7.3,4.5
CCC(=O)N1CC(=O)N2[C@H](C1)[C@@H](c1ccc(-c3cccnc3)cc1)[C@@H]2CO,1,0,0.7,-7.7
C[C@@H]1CN([C@@H](C)CO)C(=O)c2cc(NS(=O)(=O)c3cccs3)ccc2O[C@@H]1CN(C)Cc1ccc(-c2ccccc2)cc1,0,-25,21,3.6
COc1ccc(S(=O)(=O)Nc2ccc3c(c2)C(=O)N([C@@H](C)CO)C[C@@H](C)[C@@H](CN(C)Cc2ccc4c(c2)OCO4)OCCCC[C@@H](C)O3)cc1,6,-32,32,5.8
C[C@@H]1CN([C@@H](C)CO)C(=O)Cc2cc(NC(=O)NC3CCCCC3)ccc2O[C@H]1CN(C)Cc1ccncc1,-2,-4,0.8,-1.3
CCNC(=O)[C@H]1[C@H](CO)[C@H]2Cn3c(ccc(-c4ccccc4F)c3=O)[C@@H]1N2C(=O)CC,2,5,-0.7,0.6
C[C@H]1CN([C@@H](C)CO)C(=O)c2cccc(NC(=O)Nc3ccc4c(c3)OCO4)c2O[C@@H]1CN(C)S(C)(=O)=O,-2,-5,-0.8,-0.6
Cc1cn([C@H]2C[C@H](O)[C@@H](/C=C/C(=O)NCc3ccco3)O2)c(=O)[nH]c1=O,8,10,-1.4,0.3
CC(C)NC(=O)Nc1ccc2c(c1)C(=O)N([C@@H](C)CO)C[C@@H](C)[C@H](CN(C)C(=O)Nc1cccc3ccccc13)OCCCC[C@H](C)O2,4,6,-1.0,0.9
C[C@@H]1CN([C@H](C)CO)C(=O)c2cc(NC(=O)Cc3ccccc3)ccc2O[C@@H](C)CCCCO[C@H]1CN(C)C(=O)c1ccccc1,0,-10,1.0,-2.5
CCC(=O)N1[C@@H]2Cn3c(cccc3=O)[C@H]1[C@@H](C(=O)NC1CCC1)[C@@H]2CO,3,10,-0.2,0.9
O=C(c1ccccn1)N1CC(=O)N2[C@H](CO)[C@H](c3ccc(C#CC4CCCC4)cc3)[C@@H]2C1,2,3,-2.5,-0.9
C[C@@H]1CN([C@@H](C)CO)C(=O)c2cc(C#CC3(O)CCCC3)cnc2O[C@@H]1CN(C)C,3,11,-0.1,-0.5
COc1ccc(NC(=O)Nc2ccc3c(c2)CC(=O)N([C@H](C)CO)C[C@H](C)[C@@H](CN(C)Cc2ccccc2)O3)cc1,-6,-35,10,7.0
COCC(=O)Nc1ccc2c(c1)OC[C@H](C)N(Cc1cccnc1)C[C@@H](C)[C@H](OC)CN(C)C2=O,1,2,-0.6,-0.2
O=C(C[C@H]1C[C@@H]2c3cc(NC(=O)CC4CC4)ccc3O[C@@H]2[C@H](CO)O1)NCc1cc(F)ccc1F,-1,3,-1.1,-0.7
CC(C)C(=O)Nc1ccc2c(c1)C(=O)N(C)[C@@H]1CC[C@@H](CC(=O)O)O[C@@H]1CO2,-2,-8,1.9,-1.2
CCOC(=O)C1=CCCN(S(=O)(=O)c2ccc(C)cc2)C1,-12,2,-5.1,-7.4
COc1cccc(CNC(=O)C[C@@H]2CC[C@@H]3[C@H](COc4ccc(NC(=O)c5cccs5)cc4C(=O)N3C)O2)c1,-2,1,-1.7,-0.1

Six compounds picked at random from the list so far:
Compound,Ecoli rRNA inh,Ecoli rRNA inh OD600,Ecoli rRNA inh RFP,AF4-AF9 inh
CCS(=O)(=O)N1CC(=O)N2[C@@H](CO)[C@H](c3ccc(C#CCC4CCCC4)cc3)[C@@H]2C1,-35,-66,7.3,4.5
CCNC(=O)[C@H]1[C@H](CO)[C@H]2Cn3c(ccc(-c4ccccc4F)c3=O)[C@@H]1N2C(=O)CC,2,5,-0.7,0.6
C[C@H]1CN([C@@H](C)CO)C(=O)c2cccc(NC(=O)Nc3ccc4c(c3)OCO4)c2O[C@@H]1CN(C)S(C)(=O)=O,-2,-5,-0.8,-0.6
O=C(C[C@H]1C[C@@H]2c3cc(NC(=O)CC4CC4)ccc3O[C@@H]2[C@H](CO)O1)NCc1cc(F)ccc1F,-1,3,-1.1,-0.7
C[C@@H]1CN([C@@H](C)CO)C(=O)c2cc(NS(=O)(=O)c3cccs3)ccc2O[C@@H]1CN(C)Cc1ccc(-c2ccccc2)cc1,0,-25,21,3.6
CC(C)C(=O)Nc1ccc2c(c1)C(=O)N(C)[C@@H]1CC[C@@H](CC(=O)O)O[C@@H]1CO2,-2,-8,1.9,-1.2

Next part:
Compound,Ecoli rRNA inh,Ecoli rRNA inh OD600,Ecoli rRNA inh RFP,AF4-AF9 inh
O=C(Nc1cccc(F)c1)N1CCCCN2[C@H](CO)[C@@H](c3ccc(C#CC4CC4)cc3)[C@H]2C1,-59,-74,-9.7,17
CCCC(=O)N1CC2(CN(Cc3cccnc3)C2)c2c([nH]c3cc(OC)ccc23)[C@H]1CO,0,5,-0.6,-2.0
CC(C)NC(=O)N(C)C[C@@H]1Oc2ccc(N(C)C)cc2C(=O)N([C@@H](C)CO)C[C@@H]1C,4,12,-0.1,-9.1
C[C@H]1CN([C@@H](C)CO)C(=O)CCCn2cc(nn2)CO[C@H]1CN(C)Cc1ccc(Cl)c(Cl)c1,-7,-5,3.2,-1.5
O=C(Nc1ccccc1F)N1CC(=O)N2[C@@H](CO)[C@@H](c3ccc(C#Cc4ccccc4)cc3)[C@@H]2C1,-15,-34,20,-11
Cc1cc(C(=O)Nc2ccc3c(c2)C(=O)N(C)[C@H]2CC[C@H](CC(=O)N[C@H](C)c4ccccc4)O[C@H]2CO3)no1,3,8,-1.2,2.1
OC[C@@H]1CN(CCN2CCOCC2)C[C@H](n2cnc3c(N4CCOCC4)ncnc32)O1,21,23,3.0,-0.3
CCCCN(CCCC)Cc1cc(=O)oc2ccccc12,1,11,-4.8,-4.8
COc1ccc(-c2[nH][nH]c(=O)c2NC(=O)c2ccccn2)cc1,13,13,2.5,-1.7
Cc1noc(C)c1S(=O)(=O)N(C)C[C@H]1OCc2ccccc2-c2c(n(C)c3ccccc23)C(=O)N([C@H](C)CO)C[C@@H]1C,0,4,0.5,10
COc1ccc(NC(=O)Nc2ccc3c(c2)C(=O)N([C@H](C)CO)C[C@H](C)[C@@H](CN(C)C(=O)CCCN(C)C)OCCCC[C@H](C)O3)cc1,-1,4,-1.0,6.2
C[C@@H]1CCCCO[C@@H](CN(C)C(=O)Cc2ccccc2)[C@H](C)CN([C@H](C)CO)C(=O)c2cc(NS(=O)(=O)c3cn(C)cn3)ccc2O1,-2,6,2.5,-3.7
CNC(=O)C[C@@H]1CC[C@@H]2[C@H](COC[C@@H](O)CN2Cc2ccc(C(F)(F)F)cc2)O1,0,-1,0.0,-3.2
Cc1noc(C)c1NC(=O)Nc1cccc2c1O[C@H](CN(C)Cc1ccc(C(F)(F)F)cc1)[C@@H](C)CN([C@H](C)CO)C2=O,-7,-9,-1.3,1.7
CSc1ccc(Cn2c(C)c(C(=O)NCc3ccc4c(c3)OCCO4)sc2=O)cc1,3,6,-2.0,-5.2
COc1ccc(CN(C)C[C@H]2OCCCC[C@H](C)Oc3ccc(NC(=O)c4ccccc4)cc3C(=O)N([C@H](C)CO)C[C@@H]2C)cc1,0,-2,-1.0,3.2
COCCNC(=O)C1(C)CCCN(C(=O)c2c(-c3ccccc3)noc2C)C1 (configuration not stated),8,12,5.5,-0.2
C[C@@H]1CN([C@@H](C)CO)C(=O)Cc2cc(NC(=O)C3CC3)ccc2O[C@H]1CN(C)CC1CC1,5,8,-1.6,-2.5
CCC(=O)N1CCCCN2[C@H](CO)[C@@H](c3ccc(C#CCOC)cc3)[C@H]2C1,7,11,-1.8,-3.7
O=C(Nc1cccc(F)c1)N1CC(=O)N2[C@H](CO)[C@@H](c3ccc(-c4ccccc4)cc3)[C@H]2C1,2,-28,6.3,0.6
CN1CCN(C(c2ccccc2)c2nnnn2C(C)(C)C)CC1 (configuration not stated),16,33,0.4,-18
C[C@H]1CN([C@@H](C)CO)S(=O)(=O)c2ccc(-c3ccncc3)cc2O[C@@H]1CN(C)C(=O)C1CC1,-3,-7,-0.8,2.7
CC(C)CC#Cc1ccc2c(c1)O[C@@H](CN(C)C(=O)Cc1ccccc1)[C@@H](C)CN([C@H](C)CO)S2(=O)=O,-3,-4,-0.9,-1.4
COCC(=O)Nc1ccc2c(c1)OC[C@H](C)N(Cc1ccccc1OC)C[C@H](C)[C@H](OC)CN(C)C2=O,1,2,-4.4,1.6
O=C(Nc1ccccc1F)N1CC(=O)N2[C@@H](CO)[C@H](c3ccc(C#CC4CC4)cc3)[C@@H]2C1,1,-4,3.7,-1.6
CC(C)NC(=O)Nc1ccc2c(c1)CC(=O)N([C@H](C)CO)C[C@@H](C)[C@H](CN(C)Cc1ccc(Oc3ccccc3)cc1)O2,4,-23,10,5.0
C[C@@H]1CN([C@@H](C)CO)C(=O)c2c(c3ccccc3n2C)-c2ccccc2CO[C@@H]1CN(C)Cc1cccc(F)c1,1,11,-3.4,1.5
COc1ccc(CN2C(=O)CN(S(C)(=O)=O)CC2(C)C(=O)NC(C)C)cc1OC (configuration not stated),9,16,-1.6,-1.2
CCCNC(=O)Nc1ccc2c(c1)OC[C@@H](C)N(Cc1ccncc1)C[C@@H](C)[C@H](OC)CN(C)C2=O,-1,-5,1.7,2.4
COc1ccc(CN(C)C[C@@H]2OCCCC[C@H](C)Oc3ccc(NS(=O)(=O)c4cccs4)cc3C(=O)N([C@@H](C)CO)C[C@@H]2C)cc1,0,2,0.4,5.2
COCCN1C(=O)[C@H]2C[C@@]13O[C@H](c1ccc(C(F)(F)F)cc1)N=C3C[C@H](c1ccccc1)[C@H]2C,9,-12,1.9,-2.4
CCCCn1nnnc1C(c1cc2ccccc2o1)N1CCN(CC(=O)N2CCCC2)CC1 (configuration not stated),6,11,7.8,1.2
CO[C@H]1CN(C)C(=O)c2ccc(NC(=O)NC(C)C)cc2OC[C@@H](C)N(C(=O)C2CCC2)C[C@@H]1C,-1,1,-0.8,-1.0
O=C(O)C[C@@H]1C[C@H]2c3cc(NC(=O)NC4CCCC4)ccc3O[C@H]2[C@@H](CO)O1,3,4,-4.3,-3.1
CS(=O)(=O)N1[C@H](C#N)[C@@H](c2ccccc2-c2ccccc2F)[C@H]1CO,0,6,2.8,-0.8
C[C@H]1CN([C@@H](C)CO)C(=O)c2cc(NC(=O)Cn3cnnn3)ccc2O[C@@H]1CN(C)Cc1ccc(Cl)c(Cl)c1,-4,-11,4.2,-19
COc1ccc2c3c([nH]c2c1)[C@H](CO)N(C)CC31CCN(C(=O)c2ccccn2)CC1,7,17,-0.8,2.3
Cc1noc(C)c1NC(=O)Nc1ccc2c(c1)CC(=O)N([C@H](C)CO)C[C@@H](C)[C@@H](CN(C)S(=O)(=O)c1ccc(Cl)cc1)O2,3,9,-0.2,-0.7
COc1ccc(S(=O)(=O)Nc2ccc3c(c2)CC(=O)N([C@H](C)CO)C[C@@H](C)[C@@H](CN(C)C(=O)Nc2cccc4ccccc24)O3)cc1,-1,-3,-2.2,1.4
COc1ccc(S(=O)(=O)N(C)C[C@@H]2Oc3ccc(NC(=O)Cc4cn(C)c5ccccc45)cc3C(=O)N([C@H](C)CO)C[C@@H]2C)cc1,0,4,-1.4,0.8
COc1ccc(S(=O)(=O)Nc2ccc3c(c2)CC(=O)N([C@@H](C)CO)C[C@H](C)[C@@H](CN(C)C(=O)Nc2ccccc2)O3)cc1,1,2,-1.1,-2.7
O=C(Nc1cc(F)ccc1F)N1CC(=O)N2[C@H](CO)[C@@H](c3ccc(/C=C/c4ccccc4)cc3)[C@H]2C1,-5,2,3.6,3.4
CO[C@@H]1CN(C)C(=O)c2ccc(NS(=O)(=O)c3cccc(F)c3)cc2OC[C@H](C)N(C(=O)Cc2cccnc2)C[C@@H]1C,-2,-3,0.0,2.6
Cc1noc(C)c1NC(=O)N[C@@H]1C=C[C@H](CC(=O)Nc2ccccc2)O[C@@H]1CO,-1,1,1.0,-0.4
C[C@@H]1CN([C@H](C)CO)C(=O)c2cc(-c3cccc(F)c3)cnc2O[C@H]1CN(C)C,3,7,1.9,1.1
O=C(C[C@H]1CC[C@@H]2[C@H](COC[C@H](O)CN2C(=O)c2cnccn2)O1)NCc1ccc(F)cc1,3,8,-2.4,-1.5
O=C(COC(=O)Cc1n[nH]c(=O)c2ccccc12)Nc1c(Br)cc([N+](=O)[O-])cc1Br,16,8,2.3,-0.2
CC(C)NC(=O)Nc1ccc2c(c1)C(=O)N([C@@H](C)CO)C[C@@H](C)[C@@H](CN(C)C(=O)Nc1ccc(C(F)(F)F)cc1)OCCCC[C@H](C)O2,0,-4,1.2,-2.3
O=C(C1CC(=O)N(c2ccc3c(c2)OCCO3)C1)N1CCN(S(=O)(=O)c2ccccc2F)CC1 (configuration not stated),11,8,1.6,0.7
